Mtb hypoxia rep – Mtb hypoxia fluorescent reporter inhibition | M. tuberculosis hypoxia-regulated fluorescent reporter, fluorescence | fluorescence inhibition, % (test concentration not listed) | 300,000 tested, 0.1% active;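 active means 35 to 45% if threefold the growth effect, above 45% if 1.5-fold the growth effect; inactive means the rest, general growth blockers included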;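 further: wells of about 50 µL received 100 nL stock; 0% = vehicle wells and 100% = reference inhibitor wells; whole bacteria with a GFP reporter of the hypoxia response; strong numbers were not always called active; many hits fall short of the cut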
Bead autofluor – compound fluorescence in toxin protease inhibitor counterscreen | 360,000 tested, 3.1% active | AID 624483 | compound autofluorescence counterscreen, microsphere flow cytometry; hits give high values | fluorescence intensity (no concentration beside the values);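 active means at least 3 SD above the mean of all compounds, about 16000 in these data; inconclusive means too few beads counted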;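 further: 100 nL of 1 mM stock went into each well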
PrP 5UTR inh – inhibition of PrP 5' UTR reporter expression; cell-based PrP 5' UTR mRNA reporter, plate reader; inhibition, % (no concentration beside the values); 340,000 tested, 0.35% active; AID 488862;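 active means every replicate at 50% or more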;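 further: 0 = median of the neutral control wells; tested in H4 reporter cells; numbers are from one replicate; inactives centre near -14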
BJeLR viability – kills HRASV12-expressing BJeLR cells | BJeLR (HRASV12) viability, CellTiter-Glo ATP luminescence, 48 h; reference of the scale not given here | inhibition, % (test concentration not listed) | 300,000 tested, 0.17% active;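 active means replicate mean above 50%; inconclusive means above 50% but judged a plate artefact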;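 further: 50 nL library stock added to about 25 µL; numbers are from one replicate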
Sa ugtP lethal – kills S. aureus RN4220 lacking UgtP. S. aureus RN4220 ugtP deletion, OD600 growth, 16 h; some inactives read as strong as hits. growth inhibition, % (no concentration beside the values). 330,000 tested, 0.54% active;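 active means z-score under -3 and OD600 up to 0.15 on both plates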;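 further: plate controls were untreated wells for no effect and antibiotic for full effect; wells of about 80 µL received 100 nL stock; the first replicate is given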
Sa RN4220 lethal – S. aureus RN4220 growth inhibition. 330,000 tested, 0.33% active. inhibition, % (concentration not given with the values). OD600, 16 h;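 active means z-score of -3 or lower and OD600 up to 0.18 on both plates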;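 further: plate controls were untreated cells for no effect and reference antibiotic for full effect; stock transfer was 100 nL into about 80 µL; one replicate is shown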
Mtb hypoxia rep growth – also measured in Mtb hypoxia rep; calls as there; growth inhibition, %; measured here: M. tuberculosis growth (absorbance);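 0% = vehicle and 100% = reference antibiotic; read after six days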
* = called active by the depositor; u = inconclusive; x = not tested or not shown.

1	Cc1cccc(C=NNC(=O)c2cc(Br)ccc2OCc2ccccc2)n1
2	O=C(O)c1cccc2c1C(=O)c1ccccc1C2=O
3	O=S(=O)(NC1CCCC1)c1ccc(-n2cnnn2)cc1
4	O=C(O)CCc1n[nH]c(=S)[nH]c1=O
5	CC1CCCC(C)N1/N=C/c1ccc(Cl)cc1 (configuration not stated)
6	Brc1ccc(Nc2ncnc3[nH]ncc23)cc1
7	O=C(CN1CCN(Cc2ccccc2)CC1)N/N=C/c1cccnc1
8	O=C(CC1CC=CCCC(=O)OC(c2ccccc2)CNC1=O)NC(CO)Cc1ccccc1 (configuration not stated)
9	CN1CC(c2ccc(Cl)c(Cl)c2)[C@@]2(COc3ccccc3C2=O)[C@@]12C(=O)Nc1ccccc12 (some centres not stated)
10	NC(=NC(=O)c1ccc(Cl)cc1)N1N=CCC1c1ccccc1 (configuration not stated)

Assay by compound,1,2,3,4,5,6,7,8,9,10
Mtb hypoxia rep,-11.8,-12.0,-3.0,12.2,x,-4.7,x,8.1,x,-7.9
Mtb hypoxia rep growth,-0.8,-0.2,-6.8,3.8,x,2.1,x,10.7,x,1.6
Bead autofluor,x,4106,4343,5658,5043,5884,4788,x,20876*,2010
PrP 5UTR inh,x,-4.8,-26.6,-6.8,-24.3,x,-23.5,x,-11.8,3.4
BJeLR viability,x,6.2,3.9,0.2,1.8,-5.4,2.9,x,1.5,2.4
Sa ugtP lethal,-7.4,0.7,3.9,2.7,x,17.7,x,-5.4,x,-7.7
Sa RN4220 lethal,11.4,4.5,2.5,4.2,x,19.2,x,2.7,x,-1.9

11	COc1ccc(OC)c(NC(=O)c2cc(S(=O)(=O)NCc3ccco3)ccc2F)c1
12	COc1ccc(CCNC(=O)COC(=O)c2cnc(Cl)c(Cl)c2)cc1
13	COCCNC(=O)CN(c1ccc(OC)c(OC)c1)S(=O)(=O)c1ccc(C)cc1
14	CCOc1ccccc1Oc1ccc(C(F)(F)F)cn1
15	O=C(Nn1cnc2ccccc2c1=O)c1ccc(Br)cc1
16	Cc1ccc(C(=O)CNc2ccc(C)cc2C)cc1
17	CC[C@]12c3[nH]c4ccccc4c3CCN1C(=O)C(CC(=O)NCCCOC)C[C@@H]2C(=O)N1CCN(C(=O)C2CC2)CC1 (some centres not stated)
18	COc1ccc(CNC(=O)c2cc(=O)c3ccc(C)c(C)c3o2)cc1
19	CCN(c1ccc(NS(=O)(=O)c2cc(Cl)ccc2Cl)cc1)C(C)C
20	S=c1[nH]nc(-c2ccc(Br)cc2)n1Cc1ccco1

Assay by compound,11,12,13,14,15,16,17,18,19,20
Mtb hypoxia rep,4.7,4.3,x,3.9,8.8,4.9,-9.1,-7.0,10.7,x
Mtb hypoxia rep growth,-0.8,-4.6,x,7.5,-1.5,-2.0,-0.3,-5.4,5.3,x
Bead autofluor,11396,x,2416,2969,3206,3100,3763,3495,2417,2029
PrP 5UTR inh,-63.1,x,-20.2,-17.4,-14.2,-21.2,-19.0,-20.7,-17.4,9.9
BJeLR viability,-6.8,x,-2.6,4.3,3.5,9.0,x,-6.8,9.6,-7.1
Sa ugtP lethal,-1.5,10.4,-1.0,-5.6,8.0,5.0,-1.5,1.5,2.7,-11.6
Sa RN4220 lethal,3.8,5.7,-1.7,-15.8,3.1,-1.4,1.9,1.6,6.4,1.2

21	O=C(CSc1nnnn1-c1ccc(F)cc1)NNC(=O)c1ccco1
22	COc1cccc(CNC(=O)CC(NC(C)=O)c2ccccc2)c1 (configuration not stated)
23	CCOc1ncccc1C(=O)N1CCCSC1=Nc1ccc(C(C)=O)cc1
24	CCc1ccccc1NC(=O)Cc1cn(C)c2ccccc12
25	CN(c1ccccc1C(=O)Nc1ccc2c(c1)n(C)c(=O)n2C)S(C)(=O)=O
26	CC(=O)NCCC(=O)Nc1ccc(F)cc1C
27	O=C(Nc1c2c(nn1-c1ccc(Cl)cc1)CS(=O)(=O)C2)c1ccc2c(c1)OCO2
28	N#Cc1ccc(Cl)cc1NC(=O)COC(=O)c1ccc(S(=O)(=O)N2CCCC2)cc1
29	O=C(Nc1ccccn1)NC1CCS(=O)(=O)C1 (configuration not stated)
30	O=C(Nc1cccc(OC(=O)N2CCOCC2)c1)N1CCOCC1

Assay by compound,21,22,23,24,25,26,27,28,29,30
Mtb hypoxia rep,1.5,-8.3,3.9,7.8,6.9,x,7.7,x,-9.2,10.4
Mtb hypoxia rep growth,-6.3,3.4,-3.4,5.6,-3.0,x,0.8,x,8.3,10.3
Bead autofluor,3906,4200,4320,3146,4123,2321,11573,4164,11426,4144
PrP 5UTR inh,-5.7,-20.1,-2.5,-20.5,-14.1,-16.9,x,-13.3,-16.3,-26.4
BJeLR viability,-0.7,1.4,-7.0,4.7,0.4,-0.7,10.4,0.6,-2.1,-2.2
Sa ugtP lethal,2.7,2.4,7.5,-8.1,5.0,-9.3,1.8,2.6,-8.8,6.5
Sa RN4220 lethal,10.1,3.2,1.5,4.0,1.8,-0.3,1.9,3.8,-1.4,3.0

Shown field by field: entries from further up.
23) CCOc1ncccc1C(=O)N1CCCSC1=Nc1ccc(C(C)=O)cc1
  Mtb hypoxia rep: 3.9 | Mtb hypoxia rep growth: -3.4 | Bead autofluor: 4320 | PrP 5UTR inh: -2.5 | BJeLR viability: -7.0 | Sa ugtP lethal: 7.5 | Sa RN4220 lethal: 1.5
24) CCc1ccccc1NC(=O)Cc1cn(C)c2ccccc12
  Mtb hypoxia rep: 7.8 | Mtb hypoxia rep growth: 5.6 | Bead autofluor: 3146 | PrP 5UTR inh: -20.5 | BJeLR viability: 4.7 | Sa ugtP lethal: -8.1 | Sa RN4220 lethal: 4.0

Remaining list, next part:
31	O=[N+]([O-])c1ccc(S(=O)(=O)NCC2COc3ccccc3O2)cc1 (configuration not stated)
32	O=C(CSc1c(Cl)cccc1Cl)N1CCC(c2nc3ccccc3s2)CC1
33	CN(C)S(=O)(=O)c1ccc(C(=O)OCC(=O)NC(=O)NCc2ccccc2)cc1
34	CCc1c(O)nc(SCC(=O)Nc2ccc(Br)cc2)n(-c2ccc(C)cc2)c1=O
35	COc1ccc(CNC(=O)C2CCN(S(C)(=O)=O)CC2)cc1
36	Cc1csc(SCC(=O)NCCc2ccc(Cl)cc2Cl)n1
37	COc1ccc(C(CCNC(C)c2ccccc2)C(C)C)cc1 (configuration not stated)
38	COc1ccccc1CC(=O)N1CCN(c2ccc(F)cc2)CC1
39	CCOc1ccccc1OCC(=O)Nc1cc(S(=O)(=O)N2CCCCC2)ccc1OC
40	O=C(CCNC(=O)c1ccc([N+](=O)[O-])cc1)Nc1ccc(N2CCOCC2)cc1N1CCOCC1

Assay by compound,31,32,33,34,35,36,37,38,39,40
Mtb hypoxia rep,4.2,x,-0.2,4.6,-4.2,5.6,0.2,20.1,11.7,2.9
Mtb hypoxia rep growth,-3.2,x,8.2,-8.8,12.9,1.0,19.4,15.4,4.9,7.7
Bead autofluor,6325,3562,4042,4575,4280,2863,x,u,u,3895
PrP 5UTR inh,-14.7,-13.4,-12.3,-16.4,-5.8,-23.8,x,-19.5,-13.9,-72.9
BJeLR viability,10.3,-2.7,-4.8,-2.9,-3.8,4.9,8.7,-6.8,0.2,18.8
Sa ugtP lethal,22.6,-14.4,-2.0,-1.4,7.3,-4.0,-14.2,6.1,3.3,10.8
Sa RN4220 lethal,43.2,-4.4,2.3,1.1,4.2,8.3,-3.6,6.0,11.4,2.4

41	Cc1ccc(S(=O)(=O)N=C2CN(C)C(=O)N2C)cc1
42	Cc1ccc(CNC(=O)c2nnn(-c3cccc(C)c3)c2N)cc1
43	Cn1ccnc1Sc1ccc(C=O)cc1[N+](=O)[O-]
44	COC(=O)NNC(=O)COc1ccc(Br)c(C)c1
45	CN(C(=O)c1cc2c(=O)n3ccccc3nc2n1C)C1CCCCC1
46	CCc1ccc(OCC(=O)NNC(=O)c2ccc(NC(=O)C3CC3)cc2)cc1
47	CNS(=O)(=O)c1cc(NC(=O)CCNC(=O)c2ccco2)ccc1C
48	Cn1c(=O)c2c(nc(NN=C3CCCC3)n2C)n(C)c1=O
49	CC1CCN(S(=O)(=O)c2cc(C(=O)N3CCN(c4ncccn4)CC3)ccc2Br)CC1
50	Cc1ccc(C(=O)O)cc1NC(=S)NCCc1ccccc1

Assay by compound,41,42,43,44,45,46,47,48,49,50
Mtb hypoxia rep,12.5,1.0,3.6,-0.1,2.7,-6.2,-6.9,3.2,1.0,12.5
Mtb hypoxia rep growth,6.2,5.5,5.9,5.5,15.1,5.8,3.6,-4.1,-0.8,9.2
Bead autofluor,x,9444,3219,8226,5653,6446,5700,6112,6813,4804
PrP 5UTR inh,x,3.3,2.6,-16.8,-69.2,-7.0,-7.0,-13.8,-26.5,-19.0
BJeLR viability,x,-4.8,9.7,2.3,2.6,6.1,-1.0,0.2,13.0,-1.5
Sa ugtP lethal,7.9,7.3,-0.6,-3.2,3.6,-5.1,1.3,4.3,-2.2,2.9
Sa RN4220 lethal,4.8,1.5,2.9,1.6,-1.0,0.8,3.2,3.4,3.8,2.2

51	Cc1cc(C)c[n+](C[n+]2cc(C)cc(C)c2)c1
52	CC1=CC(C)(C)N(C(=O)CSc2nnc(N)s2)c2c(C)cc(C)cc21
53	COc1ccccc1C(=O)Nc1ccc2[nH]ncc2c1
54	O=c1c2nnn(-c3ccc(Cl)cc3)c2ncn1Cc1ccccn1
55	CCOC(=O)N1CCN(C(=O)c2cc(OC)c(OC)c(OC)c2)CC1
56	Cn1c(=O)c2c(nc(CN3CCc4ccccc4C3)n2Cc2ccc(F)cc2)n(C)c1=O
57	Cn1nc(C(F)(F)F)c(-c2ccccc2)c1NC(=O)c1cccnc1
58	Cc1ccccc1OCCOCCN1CCCCCC1
59	Cc1cccc(Nc2nc(N3CCCC3)nc(N3CCCC3)n2)c1
60	COc1ccc(/C(=N\O)c2ncc(C(F)(F)F)cc2Cl)cc1

Assay by compound,51,52,53,54,55,56,57,58,59,60
Mtb hypoxia rep,4.5,5.4,7.4,14.3,-3.7,x,-4.8,6.8,-4.3,x
Mtb hypoxia rep growth,2.7,6.6,1.5,8.9,8.0,x,-6.9,-0.9,-3.5,x
Bead autofluor,3489,3016,3278,5040,3439,11001,4369,2981,22488*,2937
PrP 5UTR inh,-37.3,-8.4,5.1,-14.8,-44.2,-14.6,-18.3,-18.8,0.4,14.2
BJeLR viability,-2.9,x,-0.6,-5.6,-0.2,-4.3,1.3,-0.7,-9.7,-11.4
Sa ugtP lethal,0.8,26.8,6.4,4.8,4.7,x,-6.5,-0.3,14.6,x
Sa RN4220 lethal,1.4,33.6,3.2,5.8,2.1,x,-4.3,-1.3,4.5,x

61	Cc1cc(S(=O)(=O)N2CCOCC2)ccc1OCC(=O)NCCN1CCOCC1
62	COc1cc(-c2nc(CCNC(=O)c3ccco3)cs2)cc(OC)c1OC
63	CCN1CCN(Cc2nc3c(c(=O)[nH]c(=O)n3C)n2Cc2ccccc2Cl)CC1
64	Cc1ccc(C(NC(=O)c2ccccc2)C(Cl)Cl)cc1 (configuration not stated)
65	CSC1=C(C#N)C(c2ccccc2Cl)C(C(=O)c2cccs2)C(O)(C(F)(F)F)N1 (configuration not stated)
66	Cc1ccc(-c2nn(-c3ccc(F)cc3)cc2C(=O)NCC(c2cccs2)N2CCOCC2)cc1 (configuration not stated)
67	O=C(COC(=O)c1cc2ccccc2oc1=O)Nc1ccc(F)cc1F
68	Cc1ccc(NCC(=O)N/N=C/c2ccc(-c3cccc(C(F)(F)F)c3)o2)cc1
69	CCCC(=O)c1ccc(N2CCN(C(=O)OCC)CC2)c(F)c1
70	N#Cc1c(-c2ccc(Cl)cc2)c2c([nH]c1=S)CCCC2

Assay by compound,61,62,63,64,65,66,67,68,69,70
Mtb hypoxia rep,11.6,11.9,6.0,16.2,3.5,5.1,0.8,x,11.1,7.1
Mtb hypoxia rep growth,11.9,1.0,8.5,12.0,-1.7,1.0,-0.3,x,12.2,0.3
Bead autofluor,3780,5811,5370,7959,2027,u,4972,2532,10032,3971
PrP 5UTR inh,-16.1,-1.3,-12.4,-26.5,-11.7,-22.0,-48.7,-3.3,-30.5,-12.7
BJeLR viability,1.0,-1.0,-2.0,-9.6,-10.4,1.7,-24.3,1.9,-1.5,-2.7
Sa ugtP lethal,3.7,11.0,0.0,-1.2,4.1,-1.1,-9.1,x,13.5,8.6
Sa RN4220 lethal,1.7,3.6,-7.9,4.1,9.8,1.2,3.2,x,16.3,27.8

Copied from the list.
compound 30 @ Mtb hypoxia rep: 10.4
compound 60 @ Bead autofluor: 2937
